GALR2 ag = agonists of human galanin receptor 2 (GALR2). GALR2-expressing cells, agonist activation read-out. activation, %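 (tested at 5 µM)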. 0.48% of 140,000 active;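 active means above mean plus 3 SD of all compounds, about 5% in these data, not always enough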;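 further: 0% = vehicle buffer wells and 100% = reference agonist at full effect; tested in CHO reporter cells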
Target sequence (O43603 whole entry, looked up): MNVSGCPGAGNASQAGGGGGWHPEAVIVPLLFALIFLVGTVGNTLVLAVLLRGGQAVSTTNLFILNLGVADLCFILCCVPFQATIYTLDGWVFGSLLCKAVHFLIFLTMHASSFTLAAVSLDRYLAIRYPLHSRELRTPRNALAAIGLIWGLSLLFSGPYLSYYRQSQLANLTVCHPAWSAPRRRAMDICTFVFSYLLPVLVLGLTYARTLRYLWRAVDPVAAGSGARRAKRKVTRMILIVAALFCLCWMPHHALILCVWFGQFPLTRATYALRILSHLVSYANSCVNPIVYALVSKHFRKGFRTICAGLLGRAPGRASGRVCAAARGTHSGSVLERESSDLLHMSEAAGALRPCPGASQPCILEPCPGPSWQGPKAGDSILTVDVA
PKD1 inh = PKD1 (human) kinase inhibition; PKD1 kinase fluorescence polarization assay; inhibition, %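 (about 10 µM by stock and volumes)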; 0.056% of 200,000 active;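 active means inhibition of 50% or more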;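 further: controls were vehicle for no effect and a reference inhibitor for full effect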
RGS16-Gao = regulators of human RGS16-Galphao interaction; bead-based flow cytometry RGS16-Galphao binding, fluorescence; actives lie on both sides; binding response (% of control), % at 10 µM; 0.38% of 220,000 active; AID 1441;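 active means below 25% or above 175%, edge rows of some plates excepted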;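 further: Galphao activated by GDP with aluminum fluoride before binding; 100% = wells without compound and 0% = beads without RGS; some results beyond the cut were filed as inactive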
Target sequence (O15492 whole entry, looked up): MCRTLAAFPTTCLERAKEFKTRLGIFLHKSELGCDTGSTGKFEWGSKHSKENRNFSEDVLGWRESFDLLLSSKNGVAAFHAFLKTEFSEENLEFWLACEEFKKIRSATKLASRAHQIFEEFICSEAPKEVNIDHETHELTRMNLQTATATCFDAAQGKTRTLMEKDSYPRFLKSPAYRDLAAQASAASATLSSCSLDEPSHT
Target sequence (P09471 whole entry, looked up): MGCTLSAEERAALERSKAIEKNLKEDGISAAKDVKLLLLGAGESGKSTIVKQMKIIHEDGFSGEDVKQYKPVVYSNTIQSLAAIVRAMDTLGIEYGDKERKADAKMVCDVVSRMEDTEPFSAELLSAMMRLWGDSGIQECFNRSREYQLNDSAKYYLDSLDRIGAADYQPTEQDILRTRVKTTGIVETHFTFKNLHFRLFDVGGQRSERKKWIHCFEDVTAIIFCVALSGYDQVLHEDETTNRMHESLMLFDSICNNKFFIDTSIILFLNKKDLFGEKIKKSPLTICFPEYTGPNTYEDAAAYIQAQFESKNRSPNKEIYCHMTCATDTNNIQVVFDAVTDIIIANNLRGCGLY
Insulin prom inh = TRM-6 insulin promoter activity inhibition; TRM-6 cells (human fetal islet line), insulin promoter-eGFP reporter, imaging; reporter expression induced with tamoxifen; inhibition, % at 2 µM; 0.9% of 130,000 active;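 active means inhibition above the mean plus 3 SD, with well images judged a real hit on visual review, cut at about 60% in these data, passing the limit was not always enough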
HSV augment = HSV replication enhancement; HSV replication augmentation in cells, fold increase; maximum fold increase; 0.005% of 220,000 active; AID 1956;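 active means peak rise of 1.5-fold or more in the series; tested in PC3 cells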;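 further: first round at 10 µM; read as green reporter fluorescence; hits show the peak of a series up to 25 µM; 1 = signal of infected wells without compound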
Insulin prom inh cell count = recorded beside Insulin prom inh, whose call it bears; normalized cell count, %; measured here: cell count, toxicity; reference of the scale not given here;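 cells exposed to compound for 48 h; stained nuclei by imaging scaled within each plate; lower means fewer cells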
HSV augment primary fold = recorded beside HSV augment, whose call it bears; fold increase; compound at 10 µM; measured here: primary screen fold increase 10 uM; tested in PC3 cells;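 GFP signal in the first replicate; 1 = infected wells without compound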
Numbers without * were called inactive; i = inactive; . = not tested or not shown.

SMILES | GALR2 ag | PKD1 inh | RGS16-Gao | Insulin prom inh | Insulin prom inh cell count | HSV augment | HSV augment primary fold
COc1ccc(N(C(=O)C2CCCCC2)C2C=CS(=O)(=O)C2)c(OC)c1 (stereo not given) | -0.1 | -5.8 | 96.0 | -22.9 | 127.4 | i | 1
CCN(CC)S(=O)(=O)c1ccc(N2CCOCC2)c(NC(=O)c2ccc3ccccc3c2)c1 | 0.2 | -5.4 | 107.7 | -10.0 | 109.3 | i | 0.95
CCN(CC)C(=O)c1c(C)nc2ccccn12 | -1.6 | 1.7 | 100.3 | -50.0 | 93.3 | i | 0.87
O=C(Nc1ccc(N2CCOCC2)c2nonc12)C1CCCC1 | -0.7 | -1.6 | 97.6 | 30.4 | 90.4 | i | 0.7
COc1cc2c3c(c1)/C(=C1/SC(NC(C)=O)=NC1=O)C(=O)N3C(C)(C)C=C2C | -0.6 | -18.9 | 124.1 | 25.0 | 112.3 | i | 0.98
Cc1ccccc1N1C(N)=NC(N)=NC1(C)C | -2.2 | -0.7 | 106.0 | -39.5 | 105.5 | i | 0.92
COc1ccc(C(=O)O)cc1S(N)(=O)=O | . | 6.2 | 98.4 | . | . | i | 1.05
O=C(O)c1ccccc1SCc1cn2cc(Cl)ccc2n1 | . | -4.1 | 99.2 | -471.4 | 28.6 | i | 1.04
CCN(CC(=O)Nc1ccc(N2CCOCC2)cc1)C(=O)COc1ccccc1OC | . | -3.3 | 100.8 | -23.5 | 142.8 | i | 1.11
O=C(NC1(C(=O)NC2CCCCC2)CCCCC1)c1ccccn1 | -1.6 | -9.1 | 96.9 | -43.3 | 127.7 | i | 0.86
O=Cc1ccc(Oc2cnccn2)cc1 | . | -2.1 | 107.3 | . | . | i | 0.98
O=C(CN(CCc1ccccc1)C(=O)CNS(=O)(=O)c1ccccc1)NCc1ccco1 | -2.1 | 8.3 | 99.6 | -81.8 | 93.5 | i | 1.03
CC(=O)c1ccc(NC(=O)C(C)n2nc(-c3ccccc3)c3cc(Cl)ccc32)cc1 (stereo not given) | -1.3 | -5.2 | 108.7 | -51.2 | 101.2 | . | .
CCOC(=O)N1CCC(NC(=O)CC(NS(=O)(=O)c2ccc(Cl)cc2)c2ccco2)CC1 (stereo not given) | -1.7 | -3.3 | 108.8 | . | . | . | .
COC(=O)c1cc(NC(=O)C2COc3ccccc3O2)ccc1Cl (stereo not given) | -2.7 | -17.4 | 102.3 | -21.2 | 70.8 | i | 0.93
Cc1ccc(N2CC(C(=O)Nc3nnc(C(C)C)s3)CC2=O)cc1 (stereo not given) | -0.6 | -6.2 | 97.0 | 0.0 | 82.6 | i | 1.11
CCOc1ccc(N2C(=O)c3ccc(C(=O)OCc4c(C)noc4C)cc3C2=O)cc1 | -0.8 | 7.5 | 100.8 | 0.0 | 83.5 | i | 0.75
O=C(CSc1nnc(CNc2ccc(F)cc2)n1Cc1ccccc1)N1CCOCC1 | -1.9 | 2.2 | 111.5 | -50.0 | 116.3 | i | 1.07
Cc1cc(=O)[nH]c(SCC(=O)Nc2cc(S(=O)(=O)N3CCCC3)ccc2Cl)n1 | . | . | 94.6 | . | . | i | 0.95
COCCn1c(SCC(=O)Nc2cc(C)on2)nc2ccccc21 | . | 5.5 | 104.6 | -46.0 | 192.2 | i | 1.09
CC(C)C(=O)Nc1ccc(C(=O)NNC(=S)NC(=O)c2ccco2)cc1 | . | . | 96.2 | . | . | i | 1.04
CCn1c(CC(=O)Nc2ccccc2OC)nnc1SCC(=O)Nc1ccccc1F | . | -0.5 | 93.7 | . | . | i | 0.96
CCc1ccc(S(=O)(=O)Nc2cccc(C3OCCCO3)c2)cc1 | . | 4.7 | 94.1 | . | . | i | 0.97
CCOCC(=O)Nc1ccccc1C(=O)OCC | -0.3 | 1.7 | 99.4 | 41.7 | 157.4 | i | 0.8
Clc1cc2c(nn1)Nc1ccccc1S2 | . | . | 105.9 | . | . | i | 1.12
N#CCn1nnc(-c2ccc3c(c2)OCO3)n1 | -1.7 | -6.1 | 97.6 | . | . | i | 0.82
NC(=O)c1ccc(NC(=O)C2CCCO2)cc1 (stereo not given) | -3.0 | -1.5 | 98.0 | -33.3 | 40.0 | i | 0.86
COc1ccc(C(=O)NC(=O)CSc2nnc(-c3ccco3)n2-c2ccccc2)cc1 | -0.6 | 9.3 | 109.3 | . | . | . | .
COC(=O)C1=C(C)Nc2nnnn2C1c1ccco1 (stereo not given) | -1.9 | -3.2 | 102.6 | -2.9 | 83.0 | i | 1.12
CC1CCN(C(=O)N2c3ccccc3Sc3ccccc32)CC1 | -1.9 | -6.4 | 103.4 | -13.9 | 85.3 | i | 0.88
CC(Sc1nc2ccccc2o1)C(=O)O (stereo not given) | -1.5 | -8.1 | 36.5 | -6.1 | 40.2 | i | 0.94
O=c1[nH]c(SCc2cccc(F)c2)nc2ccccc12 | . | . | 108.8 | . | . | i | 0.91
CC(NC(=O)C(C)N1C(=O)C2C3CC(C(Br)C3Br)C2C1=O)c1ccccc1 (stereo not given) | 0.8 | 10.0 | 100.5 | -66.7 | 118.6 | i | 1.11
Cc1ccc2[nH]c3c(=O)n(N)c(C)nc3c2c1 | . | 1.3 | 97.3 | 93.8* | 177.8* | i | 1.02
O=C(COC(=O)c1ccc2c(c1Cl)C(=O)c1ccccc1C2=O)NC1CCCCC1 | 0.0 | -5.8 | 106.8 | -20.6 | 102.1 | i | 0.88
CCn1c(=O)c2c(nc(SCC(=O)NCC3CCCO3)n2C)n(C)c1=O (stereo not given) | -2.0 | 2.2 | 98.9 | -15.6 | 68.4 | i | 0.85
CC1(C)CC(=O)C(N=Nc2ccc(F)cc2)=C(O)C1 | . | . | 90.7 | . | . | i | 1
Cc1cc(Cl)c(OCCN2C(=O)NC(C)(C)C2=O)c(Br)c1 | -2.7 | -7.3 | 100.5 | i | 50.9 | i | 0.93
O=C(C1CCCCC1)N1CCc2ccccc21 | . | 2.6 | 101.3 | -18.5 | 121.0 | i | 1.03
CCCCCCCn1c(=N)n(CC(=O)c2ccco2)c2ccccc21 | -1.9 | -10.7 | 105.1 | -47.2 | 132.8 | i | 0.99
CCOc1ccc(C(=O)Nc2c3c(nn2-c2ccc(C)cc2)CS(=O)C3)cc1OCC (stereo not given) | 1.3 | -6.4 | 91.6 | . | . | i | 0.92
CS(=O)(=O)N1CCN(c2ccccc2NC(=O)CSc2nnc(-c3ccco3)o2)CC1 | -1.3 | -2.5 | 111.0 | 0.0 | 92.0 | i | 1.15
O=C(CNC(=O)c1ccc(F)cc1)N/N=C/c1cc(Br)ccc1OC(=O)/C=C/c1ccco1 | . | . | 99.9 | . | . | i | 0.66
CCOC(=O)Cn1c(CN2CCOCC2)nc2c1c(=O)[nH]c(=O)n2C | -0.3 | 0.7 | 102.9 | . | . | i | 0.81
CCOC(=O)C1=C(C)N=C2SC(C)C(=O)N2C1c1ccccc1 (stereo not given) | . | 5.8 | 110.9 | 7.7 | 103.1 | i | 0.94
CCn1nnnc1SCC(=O)N1c2ccccc2CCc2ccccc21 | -2.3 | -4.8 | 94.8 | 8.3 | 78.0 | i | 0.913
COc1ccc(C2C=C(c3ccc(C)cc3)Nc3ncnn32)cc1 (stereo not given) | -1.4 | 4.8 | 94.7 | 42.9 | 62.4 | . | .
O=C(N=Nc1c(O)[nH]c2ccccc12)c1cccc(S(=O)(=O)Nc2ccccc2Cl)c1 | . | 1.7 | 102.3 | -35.3 | 151.9 | i | 0.9
O=C1CC(N2CCN(c3ccccc3Cl)CC2)C(=O)N1c1ccc(F)cc1 (stereo not given) | -0.6 | 51.3* | 90.3 | . | . | i | 1.05
COc1ccc(C(=O)Nc2ccccc2Cc2ccccc2)c(OC)c1 | 1.6 | -5.2 | 95.5 | -5.9 | 126.9 | i | 1.06
CC(C)CC(=O)Nc1ccc2c(c1)OCO2 | . | -5.8 | 102.5 | . | . | i | 0.86
CCCCC(=O)Nc1ccc(C(=O)Nc2ccc(OC)cc2[N+](=O)[O-])cc1 | 1.1 | 5.6 | 96.4 | . | . | i | 1.72
Cc1csc(SCC(=O)Nc2cccc(S(=O)(=O)N3CCCC3)c2)n1 | -1.1 | -1.9 | 100.5 | 17.9 | 89.3 | i | 0.93
CCOc1ccccc1OCCCC(=O)Nc1sccc1C(N)=O | -1.9 | 6.2 | 96.7 | -35.5 | 143.4 | i | 1.01
COc1ccccc1NCC(=O)N/N=C/c1sccc1C | . | 0.7 | 97.4 | . | . | i | 0.86
COc1ccc(S(=O)(=O)N2CCC(C(=O)Nc3cccc(C(C)=O)c3)CC2)cc1C | -1.2 | -0.6 | 110.4 | 26.7 | 100.0 | i | 0.95
CC(=O)c1cc(CN2CCN(Cc3ccccc3)C(CCO)C2)cs1 (stereo not given) | . | -5.4 | 98.5 | . | . | i | 1.05
COc1cc(/C=N/NC(=O)c2ccccn2)cc2c1OCO2 | -0.3 | -2.7 | 101.3 | 0.0 | 134.4 | i | 0.89
CCn1ncc2c(OCc3ccc(C#N)cc3)cc(C)nc21 | -0.2 | -9.2 | 41.4 | . | . | i | 0.91
CCc1ccc2[nH]c(=O)c(C(c3nnnn3Cc3ccccc3)N3CCOCC3)cc2c1 (stereo not given) | -0.1 | -20.4 | 78.7 | -107.7 | 104.0 | i | 0.91
Additional structures
SMILES | GALR2 ag | PKD1 inh | RGS16-Gao | Insulin prom inh | Insulin prom inh cell count | HSV augment | HSV augment primary fold
N#Cc1ccc(C(=O)Nc2ccc([N+](=O)[O-])cc2)c(F)c1 | . | 0.5 | 101.7 | . | . | i | 0.94
O=C1C2CC=CCC2C(=O)N1c1ccc(NCCc2ccccc2F)c([N+](=O)[O-])c1 (stereo not given) | -1.6 | 3.1 | 97.6 | 13.3 | 74.7 | i | 1.07
O=C(CSc1nc2ccccc2[nH]1)N/N=C/C=C\c1ccccc1[N+](=O)[O-] | -0.2 | -6.4 | 105.7 | -23.3 | 111.7 | i | 0.8
CCOC(=O)C1CCN(S(=O)(=O)c2c(C)[nH]c(=O)[nH]c2=O)CC1 | -1.0 | -14.2 | 104.6 | -15.6 | 99.1 | i | 0.84
O=C(NCc1ccccc1)c1ccc(Cl)nc1 | . | -4.7 | 114.1 | . | . | i | 1.05
CN1CCN(C(=O)CSc2ccc(C(F)(F)F)cc2[N+](=O)[O-])CC1 | -0.1 | -5.0 | 94.2 | -7.1 | 99.2 | i | 0.98
O=C(O)C1CCCCC1C(=O)NC1CCCCC1 (stereo not given) | -3.4 | -9.2 | 90.1 | 30.3 | 93.8 | i | 0.92
COc1ccc(-c2ncc(CN3CCN(CCC(C)C)C(CCO)C3)cn2)cc1 (stereo not given) | . | 6.1 | 102.2 | . | . | i | 1.18
Cn1c(NC(=O)c2ccc(F)c(F)c2)cc(=O)n(C)c1=O | -1.4 | -3.1 | 101.9 | . | . | i | 0.93
CCOC(=O)Cn1nc(-c2ccccc2)ccc1=O | 0.1 | -1.9 | 100.8 | . | . | i | 0.82
COC(=O)c1ccc(C(c2c(N)n(CC(C)C)c(=O)[nH]c2=O)N2CCN(c3ccccc3)CC2)cc1 (stereo not given) | -0.5 | -4.6 | 96.3 | . | . | i | 0.86

Ordered by formula weight (low to high): nine of the compounds above
SMILES | GALR2 ag | PKD1 inh | RGS16-Gao | Insulin prom inh | Insulin prom inh cell count | HSV augment | HSV augment primary fold
O=C(NCc1ccccc1)c1ccc(Cl)nc1 | . | -4.7 | 114.1 | . | . | i | 1.05
CCOC(=O)Cn1nc(-c2ccccc2)ccc1=O | 0.1 | -1.9 | 100.8 | . | . | i | 0.82
N#Cc1ccc(C(=O)Nc2ccc([N+](=O)[O-])cc2)c(F)c1 | . | 0.5 | 101.7 | . | . | i | 0.94
Cn1c(NC(=O)c2ccc(F)c(F)c2)cc(=O)n(C)c1=O | -1.4 | -3.1 | 101.9 | . | . | i | 0.93
CCOC(=O)C1CCN(S(=O)(=O)c2c(C)[nH]c(=O)[nH]c2=O)CC1 | -1.0 | -14.2 | 104.6 | -15.6 | 99.1 | i | 0.84
O=C(CSc1nc2ccccc2[nH]1)N/N=C/C=C\c1ccccc1[N+](=O)[O-] | -0.2 | -6.4 | 105.7 | -23.3 | 111.7 | i | 0.8
COc1ccc(-c2ncc(CN3CCN(CCC(C)C)C(CCO)C3)cn2)cc1 (stereo not given) | . | 6.1 | 102.2 | . | . | i | 1.18
O=C1C2CC=CCC2C(=O)N1c1ccc(NCCc2ccccc2F)c([N+](=O)[O-])c1 (stereo not given) | -1.6 | 3.1 | 97.6 | 13.3 | 74.7 | i | 1.07
CCc1ccc2[nH]c(=O)c(C(c3nnnn3Cc3ccccc3)N3CCOCC3)cc2c1 (stereo not given) | -0.1 | -20.4 | 78.7 | -107.7 | 104.0 | i | 0.91

High-throughput results: PubChem BioAssay, several laboratories
